NOMO-1 viab: STK33 inhibitor candidate reducing NOMO-1 cell viability. AID 2330. hit rate 7.5% among 37,000. NOMO-1 AML viability, CellTiter-Glo luminescence, 72 h. inhibition, % (no concentration beside the values);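 active = most replicates above 80%; inconclusive = exactly half above 80%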;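 note: wells of about 30 µL received 25 nL stock; 0% = median of vehicle wells and 100% = reference inhibitor level; the first replicate is given; inactives centre near 10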
An asterisk follows results filed as active; ? = inconclusive. A portion of the library, so the mix of outcomes need not match the whole.

SMILES	NOMO-1 viab
C[C@H]1CN([C@@H](C)CO)C(=O)Cc2cc(NC(=O)Nc3ccc(C(F)(F)F)cc3)ccc2O[C@@H]1CN(C)CC1CC1	11
COc1cc(NC(=S)NCc2cccnc2)c(OC)cc1Cl	-3
Cc1ccc(-c2nc3ccccc3s2)cc1NC(=O)COc1ccc(Cl)cc1	36
C[C@@H]1CN([C@@H](C)CO)C(=O)c2cc(NS(=O)(=O)c3ccccc3)ccc2O[C@@H]1CN(C)CC1CC1	11
CN(Cc1nc(-c2ccncc2)no1)S(=O)(=O)c1ccccc1	-25
CNC[C@H]1Oc2ccc(NS(=O)(=O)c3ccc(C)cc3)cc2CC(=O)N([C@@H](C)CO)C[C@@H]1C	10
C[C@H](CO)N1C[C@H](C)[C@H](CN(C)Cc2ccccc2)Oc2ccc(NC(=O)CCN3CCOCC3)cc2CC1=O	-4
C[C@@H]1CN([C@H](C)CO)C(=O)Cc2cc(NC(=O)C3CC3)ccc2O[C@H]1CN(C)C(=O)Nc1ccc(C(F)(F)F)cc1	4
CC(NS(=O)(=O)c1ccccc1)C(=O)Nc1ccc(Oc2ccccc2)cc1 (stereo unspecified)	27
COC(=O)COc1ccc2c(=O)c(Oc3cnn(-c4ccccc4)c3)c(C(F)(F)F)oc2c1C	32
Cc1ccc(S(=O)(=O)Nc2ccc3c(c2)CC(=O)N([C@@H](C)CO)C[C@H](C)[C@H](CN(C)C(=O)Nc2cccc4ccccc24)O3)cc1	11
COc1ccc(NC(=O)c2ccco2)cc1NC(=O)c1cc(OC)c(OC)c(OC)c1	13
C[C@@H]1CCCCO[C@@H](CN(C)Cc2ccc(C(F)(F)F)cc2)[C@@H](C)CN([C@H](C)CO)C(=O)c2cc(NC(=O)Nc3ccc4c(c3)OCO4)ccc2O1	61
COC(=O)c1c(C)[nH]c(C)c1C(=O)c1ccccc1Cc1ccccc1	37
COc1ccc(S(=O)(=O)N(C)C[C@@H]2Oc3ccc(NC(=O)NC4CCCCC4)cc3C(=O)N([C@H](C)CO)C[C@H]2C)cc1	0
COc1ccc(-c2nc(SCc3cc(Cl)ccc3OC)n[nH]2)cc1	30
CCCCC1(COC(=O)Nc2cccc(Cl)c2)C(=O)N(c2ccccc2)N(c2ccccc2)C1=O	23
C[C@@H]1CN([C@@H](C)CO)C(=O)c2cc(NC(=O)C3CCCCC3)ccc2O[C@@H]1CN(C)Cc1ccc2c(c1)OCO2	14
C[C@@H]1CCCCO[C@H](CN(C)Cc2ccccc2)[C@@H](C)CN([C@H](C)CO)C(=O)c2cc(NC(=O)Nc3ccc(C(F)(F)F)cc3)ccc2O1	104*
Cc1ccc2nsnc2c1S(=O)(=O)N1CCN(CCc2ccccc2)CC1	4
COc1ccc(S(=O)(=O)N(C)C[C@@H]2Oc3c(NS(=O)(=O)c4c(C)noc4C)cccc3C(=O)N([C@H](C)CO)C[C@@H]2C)cc1	16
C[C@H](CO)N1C[C@H](C)[C@H](CN(C)Cc2ccc3c(c2)OCO3)Oc2ccc(NC(=O)NC3CCCCC3)cc2CC1=O	-11
C[C@@H]1CCCCO[C@H](CN(C)S(=O)(=O)c2ccc(Cl)cc2)[C@@H](C)CN([C@H](C)CO)C(=O)c2cc(NC(=O)NC3CCCCC3)ccc2O1	30
C[C@@H]1CN([C@@H](C)CO)C(=O)Cc2cc(NS(=O)(=O)c3ccc(F)cc3)ccc2O[C@@H]1CN(C)CC1CCCCC1	?
CNC[C@@H]1Oc2c(NC(=O)NC3CCCCC3)cccc2C(=O)N([C@H](C)CO)C[C@H]1C	-5
CSc1ccccc1NC(=O)CN(C)S(=O)(=O)c1c(C)cc(C)cc1C	3
Cc1ccc(S(=O)(=O)N(C)C[C@H]2Oc3ccc(NC(=O)NC4CCCCC4)cc3C(=O)N([C@@H](C)CO)C[C@@H]2C)cc1	3
Cc1ccc(S(=O)(=O)Nc2ccc3c(c2)C(=O)N([C@@H](C)CO)C[C@@H](C)[C@H](CN(C)Cc2ccc4c(c2)OCO4)O3)cc1	2
COC(=O)COc1c(Sc2ccc([N+](=O)[O-])cc2)c(C)nn1-c1ccccc1	71
CC(C)NC(=O)Nc1ccc2c(c1)CC(=O)N([C@@H](C)CO)C[C@H](C)[C@H](CN(C)C(=O)NC(C)C)O2	-14

Reformatted as labelled records: entries from further up
> C[C@@H]1CN([C@@H](C)CO)C(=O)Cc2cc(NS(=O)(=O)c3ccc(F)cc3)ccc2O[C@@H]1CN(C)CC1CCCCC1
  NOMO-1 viab: ?
> CNC[C@@H]1Oc2c(NC(=O)NC3CCCCC3)cccc2C(=O)N([C@H](C)CO)C[C@H]1C
  NOMO-1 viab: -5
> CSc1ccccc1NC(=O)CN(C)S(=O)(=O)c1c(C)cc(C)cc1C
  NOMO-1 viab: 3

Next records follow.
SMILES	NOMO-1 viab
C[C@@H]1CN([C@H](C)CO)C(=O)c2cc(NC(=O)C3CCCCC3)ccc2O[C@H]1CN(C)C(=O)Nc1ccc2c(c1)OCO2	3
C[C@H](CO)N1C[C@H](C)[C@H](CN(C)S(=O)(=O)c2ccc(Cl)cc2)Oc2ccc(NC(=O)Nc3ccc(C(F)(F)F)cc3)cc2CC1=O	134*
C[C@H](CO)N1C[C@H](C)[C@@H](CN(C)Cc2ccc(C(=O)O)cc2)Oc2ccc(NC(=O)Nc3ccc(C(F)(F)F)cc3)cc2C1=O	-1
Cc1cc(C)c(NC(=O)CSc2nc3ccc(NC(=O)c4ccccc4Cl)cc3s2)c(C)c1	37
C[C@@H]1CN([C@H](C)CO)C(=O)c2cc(NS(C)(=O)=O)ccc2O[C@H]1CN(C)C(=O)Nc1ccccc1	9
CC(=O)OC[C@H]1O[C@@H](Oc2ccccc2COC(=O)C2(O)C=CCCC2=O)[C@H](OC(C)=O)[C@@H](O)[C@@H]1O (stereo partly specified)	58
CC(C)NC(=O)Nc1cccc2c1O[C@H](CN(C)CC1CCCCC1)[C@H](C)CN([C@@H](C)CO)C2=O	-1
CC(C)(C)NC(=O)c1cccc(NC(=O)COc2ccc3ccccc3c2)c1	38
Cc1cc(OCC(=O)Nc2ccccc2C(=O)N2CCCCC2)c(C)cc1Br	17
CCCN(C)C[C@@H]1OCCCC[C@@H](C)Oc2ccc(NS(=O)(=O)c3c(C)noc3C)cc2C(=O)N([C@H](C)CO)C[C@@H]1C	11
Cn1c(=O)c2[nH]c(C3CCCC3)nc2n(C)c1=O	14
CN(c1cccc(NS(=O)(=O)c2ccc3c(c2)OCCO3)c1)S(C)(=O)=O	-2
Cc1c(C#N)c2ccccc2n1CC(=O)NCCc1c[nH]c2ccccc12	18
COc1ccc(S(=O)(=O)N(C)C[C@H]2Oc3ccc(NS(=O)(=O)c4ccc(F)cc4)cc3CC(=O)N([C@@H](C)CO)C[C@@H]2C)cc1	48
Cc1noc(C)c1S(=O)(=O)Nc1cccc2c1O[C@@H](CN(C)S(=O)(=O)c1ccc(Cl)cc1)[C@@H](C)CN([C@@H](C)CO)C2=O	29
COc1ccc(S(=O)(=O)N(C)C[C@@H]2Oc3ccc(NC(=O)CCCN(C)C)cc3C(=O)N([C@@H](C)CO)C[C@@H]2C)cc1	3
CNC[C@@H]1Oc2c(NC(=O)c3cc(C)nn3C)cccc2C(=O)N([C@@H](C)CO)C[C@@H]1C	-13
COC(=O)c1sccc1NC(=O)Cn1cnc2c1c(=O)n(C)c(=O)n2C	21
O=C(Cn1c(S(=O)(=O)Cc2ccccc2)nc2ccccc21)N1CCOCC1	-17
COc1ccc(NC(=O)Nc2ccc3c(c2)CC(=O)N([C@@H](C)CO)C[C@H](C)[C@H](CN(C)C(=O)Nc2ccc(F)cc2)O3)cc1	14
C[C@@H]1CN([C@H](C)CO)C(=O)c2cc(NC(=O)Nc3ccccc3)ccc2O[C@@H]1CN(C)Cc1ccc(C(F)(F)F)cc1	58
COC(=O)c1ccc(CSc2nnc(CN3CCOCC3)n2C)cc1	27
CCOC(=O)c1ccc(NC(=O)Cn2c(C(F)(F)F)nc3ccccc32)cc1	34
C[C@@H]1CN([C@H](C)CO)C(=O)c2cc(NS(=O)(=O)c3ccccc3)ccc2O[C@H]1CN(C)S(=O)(=O)c1cccs1	-3
CC(C)NC(=O)N(C)C[C@H]1Oc2c(NC(=O)CCCCCC(=O)Nc3ccccc3N)cccc2C(=O)N([C@@H](C)CO)C[C@H]1C	33
COc1ccc(OC)c(NC(=O)CSc2nnc(-c3ccccc3)n2C)c1	26
C[C@@H]1CN([C@@H](C)CO)C(=O)Cc2cc(NC(=O)CCN3CCOCC3)ccc2O[C@@H]1CN(C)Cc1ccc(-c2ccccc2)cc1	44
Cc1noc(C)c1NC(=O)Nc1cccc2c1O[C@@H](CN(C)Cc1ccncc1)[C@H](C)CN([C@@H](C)CO)C2=O	-15
C[C@@H]1CN([C@H](C)CO)C(=O)Cc2cc(NC(=O)C3CCCCC3)ccc2O[C@H]1CN(C)Cc1ccc(Oc2ccccc2)cc1	81*
C[C@@H]1CN([C@H](C)CO)C(=O)c2cccc(NC(=O)NC3CCCCC3)c2O[C@@H]1CN(C)Cc1ccc(C(=O)O)cc1	3
CC(=O)O[C@@H]1[C@@H](OC(=O)/C=C/c2ccccc2)[C@H](C)O[C@@H](O[C@H]2[C@@H]3C=CO[C@@H](O[C@@H]4O[C@H](CO)[C@@H](O)[C@H](O)[C@H]4O)[C@@H]3[C@@]3(CO)O[C@@H]23)[C@@H]1OC(C)=O	9
C[C@H]1CN([C@@H](C)CO)C(=O)c2cc(NS(=O)(=O)c3cn(C)cn3)ccc2O[C@@H]1CN(C)C(=O)Nc1ccc(F)cc1	-1
CC(=O)Nc1cccc(-c2nnc(SCC(=O)N3CCN(c4ccccc4)CC3)n2C)c1	6
COc1ccc(S(=O)(=O)N(C)C[C@@H]2Oc3ccc(NS(=O)(=O)c4ccc(F)cc4)cc3C(=O)N([C@H](C)CO)C[C@H]2C)cc1	-4
C[C@@H]1CN([C@H](C)CO)C(=O)c2cccc(NC(=O)Nc3ccc(F)cc3)c2O[C@H]1CN(C)Cc1ccc(C(F)(F)F)cc1	83*
C[C@H](CO)N1C[C@H](C)[C@@H](CN(C)S(=O)(=O)c2ccc(Cl)cc2)Oc2c(NC(=O)CCCCCC(=O)Nc3ccccc3N)cccc2C1=O	88*
COc1ccc(NC(=O)Nc2ccc3c(c2)C(=O)N([C@H](C)CO)C[C@H](C)[C@@H](CN(C)S(=O)(=O)c2ccc(OC)cc2)O3)cc1	25
C[C@H]1CN([C@@H](C)CO)C(=O)c2cccc(NS(C)(=O)=O)c2O[C@@H]1CN(C)Cc1ccc(C(=O)Nc2ccccc2N)cc1	12
Cc1noc(C)c1S(=O)(=O)Nc1ccc2c(c1)C(=O)N([C@@H](C)CO)C[C@@H](C)[C@H](CN(C)S(=O)(=O)c1ccc(F)cc1)O2	31
CC(=O)c1cccc(NC(=O)CN(c2ccc(Br)c(C)c2)S(C)(=O)=O)c1	19

Six records drawn at random from those above:
SMILES	NOMO-1 viab
CCOC(=O)c1ccc(NC(=O)Cn2c(C(F)(F)F)nc3ccccc32)cc1	34
C[C@H]1CN([C@@H](C)CO)C(=O)Cc2cc(NC(=O)Nc3ccc(C(F)(F)F)cc3)ccc2O[C@@H]1CN(C)CC1CC1	11
COC(=O)c1sccc1NC(=O)Cn1cnc2c1c(=O)n(C)c(=O)n2C	21
CC(NS(=O)(=O)c1ccccc1)C(=O)Nc1ccc(Oc2ccccc2)cc1 (stereo unspecified)	27
C[C@H](CO)N1C[C@H](C)[C@@H](CN(C)S(=O)(=O)c2ccc(Cl)cc2)Oc2c(NC(=O)CCCCCC(=O)Nc3ccccc3N)cccc2C1=O	88*
COc1ccc(S(=O)(=O)N(C)C[C@@H]2Oc3c(NS(=O)(=O)c4c(C)noc4C)cccc3C(=O)N([C@H](C)CO)C[C@@H]2C)cc1	16

Following part.
SMILES	NOMO-1 viab
CCn1c(=NC(=O)c2ccc(S(=O)(=O)N3CCCC3)cc2)sc2c3ccccc3ccc21	15
Cc1cc(=O)[nH]c(SCC(=O)Nc2cccc3ccccc23)n1	-2
C[C@H](CO)N1C[C@H](C)[C@@H](CN(C)S(=O)(=O)c2ccccc2)Oc2c(NC(=O)Nc3ccc(F)cc3)cccc2C1=O	34
CS(=O)(=O)N(CC(=O)Nc1ccc(F)cc1)c1ccc(Cl)c(Cl)c1	9
O=C(CN(C1CCCCC1)S(=O)(=O)c1ccc(Cl)cc1)Nc1ccccc1C(F)(F)F	26
Fc1ccccc1OCCSc1nc2ccccc2s1	12
COc1ccc(S(=O)(=O)N(C)C[C@H]2Oc3ccc(NC(=O)Nc4c(C)noc4C)cc3C(=O)N([C@@H](C)CO)C[C@@H]2C)cc1	-17
C[C@@H]1CN([C@H](C)CO)C(=O)c2cc(NC(=O)Nc3cccc4ccccc34)ccc2O[C@@H]1CN(C)C(=O)Nc1cccc2ccccc12	?
Cc1ccc(OCC(=O)NC(=S)Nc2cc(-c3nc4ncccc4o3)ccc2Cl)cc1	22
C[C@H]1CN([C@@H](C)CO)C(=O)Cc2cc(NC(=O)Nc3cccc4ccccc34)ccc2O[C@@H]1CN(C)Cc1ccc(C(=O)Nc2ccccc2N)cc1	29
C[C@@H]1CN([C@H](C)CO)C(=O)c2cccc(NC(=O)c3ccc(-c4nccs4)cc3)c2O[C@H]1CN(C)CC1CC1	69
COc1ccc(S(=O)(=O)N(C)C[C@H]2Oc3c(NC(=O)c4ccncc4)cccc3C(=O)N([C@H](C)CO)C[C@@H]2C)cc1	8
Cc1ccc(S(=O)(=O)NC2(C(F)(F)F)C(=O)N(Cc3ccco3)C3=C2C(=O)CC(C)(C)C3)cc1 (stereo unspecified)	13
Cn1c(=O)c2c(ncn2CC(=O)Nc2ccccc2Sc2ccccc2)n(C)c1=O	27
N#Cc1ccccc1NC(=O)CCSc1nc(-c2ccccc2)c2cc(Cl)ccc2n1	34
COC(=O)COc1cccc(NC(=O)c2ccccc2I)c1	110*
O=C(NCCc1ccc(S(=O)(=O)N2CCCC2)cc1)c1cccc2ccccc12	11
C[C@@H]1CCCCO[C@H](CN(C)S(=O)(=O)c2ccc(Cl)cc2)[C@@H](C)CN([C@H](C)CO)C(=O)c2cc(NC(=O)c3ccccc3)ccc2O1	26

Screens from PubChem BioAssay.
